S aureus helic: inhibitors of S. aureus replicative helicase, primary screen, biochemical, fluorescence unwinding readout; replicative DNA helicase (DnaC/DnaB), Staphylococcus aureus; purified S. aureus helicase, fluorescence unwinding assay; about half of the hits fall short of the stated cut; inhibition, %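 (tested at about 80 µM)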; hit rate 0.05% among 120,000; AID 485395, 2010;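 active = both duplicates at 50% or more, or one of them with a favoured structure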;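 also: 0% = mean of negative control wells and 100% = mean of positive control wells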
MgrA-DNA mod: S. aureus MgrA activity modulators, primary screen, biochemical, S. aureus Newman, fluorescence polarization; MgrA-DNA binding; inhibition, %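 (about 10 µg/mL by stock and volumes)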; hit rate 0.13% among 84,000; AID 602314, 2012;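 active = above 50% in either of two replicates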;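 also: 0% = protein plus DNA without compound and 100% = DNA alone without protein; higher means less MgrA bound to DNA so lower polarization; one replicate is shown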
The depositor's hits bear a star; x = no result given; & = joins results of further samples.

SMILES	S aureus helic	MgrA-DNA mod
CC(=O)Nc1ccccc1C#N	2	-0.1
NC(=O)c1ccc(C(F)(F)F)o1	x	-0.6
Cc1sc(-c2ccccc2)nc1CC(=O)NN	-37	x
Nc1ccccc1NCCc1ccccc1	-75	-0.4
O=C(COC(=O)c1sc2ccccc2c1Cl)Nc1ccccc1	0	2.7
CC(C)Cn1c(=O)c2cc3c(=O)n(CC(C)C)c(=O)c3c(C(=O)c3ccc(Cl)cc3)c2c1=O	-7	2.1
Cc1cc(C=NCCO)c(C)n1-c1cc(Cl)ccc1Cl	1	x
Cc1ccc(C2=NN(CCC(=O)N3CCC(C(N)=O)CC3)C(=O)CC2)cc1	4	-1.4
CC1CCCC(C)N1C(=O)CSc1nnc(-c2ccccc2)o1 (configuration not stated)	5	1.2
CC(=O)NC(=O)c1cc2cc(Br)ccc2oc1=Nc1cccc2ccccc12	x	4.3
O=C(c1ccccc1)c1cc(Cl)ccc1NC(=S)Nc1ccc(F)cc1	x	1.0
CC(C)Cn1c(Cc2ccccc2)nc2ccccc21	-9	x
CCOc1ccccc1C(=O)NCc1ccc(OC)c(C(=O)OC)c1	-2	x
CSc1nnc(CCNC(=O)N(c2ccccc2)c2ccccc2)n1C	-1	-0.6
Cc1ccc(O)c(C(=O)/C=C(\N)C(F)(F)F)c1	-1	2.4
NC(=S)N1N=C(c2ccc(Cl)cc2)CC1c1ccco1 (configuration not stated)	-11	x
CC1CCN(C(=O)COC(=O)COc2ccccc2C#N)CC1	13	x
Cc1cc2ncn(-c3ccc(S(=O)(=O)N4CCCC4)cn3)c2cc1C	20	x
CCC(=O)n1nc(-c2ccccc2)nc1N	5	5.3
c1ccc(Nc2nc(N3CCCC3)nc(N3CCCC3)n2)cc1	2	1.6
COC(=O)C1=C(C)N=c2s/c(=C/c3ccc(OC)cc3)c(=O)n2C1c1cccs1 (configuration not stated)	10	0.7
CN(C)S(=O)(=O)n1cc(/C=C(\NC(=O)c2ccccc2)C(=O)N2CCOCC2)c2ccccc21	19	x
COc1ccc(C(=O)/C=C(\N)C(F)(F)F)c(O)c1	25	-2.2
CC1CC(NNc2ccc(Br)cc2)NC(=S)N1 (configuration not stated)	4	-10
C=CCN(C(=O)c1cn(CC(C)C)c(=O)c2cc(OC)c(OC)cc12)c1ccccc1	19	x
Cc1ccc2c(CC(=O)NCC3CCCCC3)coc2c1	-4	x
CCSc1sc(C(=O)OC)c2c1C(=O)CC(C)(C)C2	x	0.6
COc1ccc(-c2nc(C)c(CCNS(=O)(=O)c3ccc4c(c3)OCCO4)s2)cc1OC	5	-2.0
CCc1ccc2[nH]c(C)c(CN3CCCCC3)c(=O)c2c1	-17	x
O=C(O)C1C2C=CC3(O2)C1C(=O)N1CCCOC13 (configuration not stated)	-12	-2.3
Clc1ccc(OCOc2ccc(Cl)cc2Cl)c(Cl)c1	x	-1.6
O=C(COC(=O)CSc1ccc(F)cc1)NC1CC1	11	x
c1ccc(CN(Cc2cccs2)C(c2cccs2)c2nnnn2C2CCCC2)cc1 (configuration not stated)	4	-3.0
CN(C)S(=O)(=O)c1cccc(COC(=O)c2ccc(Cl)cc2O)c1	10	x
CCOC(=O)C1=C(C)N=c2s/c(=C\c3ccc4c(c3)OCO4)c(=O)n2C1c1ccc(OC)c(OC)c1 (configuration not stated)	x	-1.5
CC(=O)Nc1nccc(-c2cc(-c3ccccc3)no2)n1	x	-2.2
COc1cc(OC)cc(N2C(=O)C=CC2=O)c1	x	-14
O=C(O)CCN1C(=O)c2ccc(Oc3ccc4c(c3)C(=O)N(CCC(=O)O)C4=O)cc2C1=O	8	-1.1
Cc1cccc(NS(=O)(=O)c2cccs2)c1C	-18	x
CC(=O)Nc1ccc(C(=O)N2CCc3ccccc3C2)cc1	-5	12
CS(=O)(=O)N1Cc2ccccc2CC1C(=O)OCC(=O)NCc1ccccc1 (configuration not stated)	10	x
O=C(CSCc1ccccc1)Nc1nnc(SCC(=O)N2CCCCCC2)s1	-1	x
O=C(CCc1ccc(S(=O)(=O)N2CCOCC2)cc1)N/N=C/c1ccco1	-7	x
O=C(/C(=N/Nc1ncnc2sc3c(c12)CCCC3)c1ccco1)c1ccco1	2	x
N#CC(C#N)=Cc1ccccc1N1CCN(Cc2ccccc2)CC1	x	-1.3
NC(=O)C1CCN(Cn2nnc3ccccc32)CC1	x	2.0
O=C1/C(=C\c2ccsc2)N2CCC1CC2	21	x
O=C(CCc1nnc(-c2ccccc2)o1)c1ccc(Cl)cc1	1	x
c1ccc(Cn2c(Sc3nnnn3-c3ccccc3)nnc2-c2ccccc2)cc1	2	-0.5
COC(=O)C1=C(C)NC(=O)/C1=C\c1ccc(C)cc1	-9	10

Reformatted field by field: four of the compounds above
SMILES: O=C(CCc1ccc(S(=O)(=O)N2CCOCC2)cc1)N/N=C/c1ccco1
  S aureus helic = -7
  MgrA-DNA mod = x

SMILES: O=C(/C(=N/Nc1ncnc2sc3c(c12)CCCC3)c1ccco1)c1ccco1
  S aureus helic = 2
  MgrA-DNA mod = x

SMILES: N#CC(C#N)=Cc1ccccc1N1CCN(Cc2ccccc2)CC1
  S aureus helic = x
  MgrA-DNA mod = -1.3

SMILES: NC(=O)C1CCN(Cn2nnc3ccccc32)CC1
  S aureus helic = x
  MgrA-DNA mod = 2.0

The listing continues:
SMILES	S aureus helic	MgrA-DNA mod
CCN(CC)c1ncnc2sc(C)c(C)c12	27	-2.0
CCOc1ccc(C2=CC(c3cccc(OC)c3)c3ccccc3O2)cc1 (configuration not stated)	-6	3.0
COc1ccc(N=Cc2ccc3ccccc3c2)cc1	8	-1.0
N#Cc1ccc(C(=O)OCc2nc3ccccc3s2)cc1	6	x
COc1ccc(C)cc1S(=O)(=O)N1CCCC(C(=O)NCC2CCCO2)C1 (configuration not stated)	1	-1.6
CCOC(=O)C(C#N)C(=O)c1ccc(NC(=O)c2ccccc2)cc1 (configuration not stated)	9	2.7
CSc1ccc(CN(C)C(C)C(=O)Nc2cccc(C#N)c2)cc1 (configuration not stated)	11	x
Cc1ccn2c(=O)c(C3=Nc4ccccc4C3=O)c(O)nc2c1	-45	x
O=C(NCc1ccccc1)NCC1CCN(CCc2ccccc2)C1 (configuration not stated)	12	x
CC1=C(C)CC(C(=O)NCc2c(F)cccc2Cl)C(C(=O)O)C1 (configuration not stated)	x	-2.1

In another format: entries from further up.
Second line of a record: S aureus helic | MgrA-DNA mod
O=C(NCc1ccccc1)NCC1CCN(CCc2ccccc2)C1 (configuration not stated)
  12 | x
CC1=C(C)CC(C(=O)NCc2c(F)cccc2Cl)C(C(=O)O)C1 (configuration not stated)
  x | -2.1

(list continues)
SMILES	S aureus helic	MgrA-DNA mod
CCCC(=O)Nc1ccc2c(c1)nc1n2CCN(Cc2ccccc2)C1	12	x
COc1ccc(/C=C/C(=O)N2CCC(c3ccccc3)C2)cc1 (configuration not stated)	21	1.3
O=C(Nc1cc(C(F)(F)F)ccc1-n1cncn1)C1=NN(c2ccccc2)C(=O)CC1	7	x
c1ccc2c(c1)[nH]c1nc(SCCN3CCOCC3)nnc12	-24	x
O=C(Cn1cncn1)c1ccc(Br)cc1Br	7	0.1
COc1ccc(C2/C(=C(\O)c3ccc(C)cc3)C(=O)C(=O)N2CCC(=O)O)cc1 (configuration not stated)	3	0.4
Cc1nn(Cc2ccccc2Cl)c(Cl)c1/C=C/C(=O)OCC#N	-11	x
CN1CCN(c2ccc(NC(=O)c3ccco3)cc2)CC1	x	2.7
CC1(C)CSC(=NCCc2ccccc2)N1C(=O)/C=C/c1ccco1	-4	x
CC(C)OC(=O)C(C#N)c1nc2ccccc2nc1N1CCN(c2ccccc2)CC1 (configuration not stated)	0	x
CCn1c2ccccc2c2cc(C=Nc3ccc(Cl)cc3)ccc21	7	-3.4
Nc1ccccc1N=C(c1ccccc1)c1c[nH]n(-c2ccccc2)c1=O	-5	x
Cc1ccc(Nc2ncc(C(=O)N3CCCCCC3)c3ccccc23)cc1Cl	9	1.8
Cc1cccc(-n2nc3c(c2NC(=O)Nc2cccc(Cl)c2)CSC3)c1	8	x
CC(C)CNC(=O)C1(c2cccs2)CCOCC1	19	x
C=CCn1c(NCc2ccc(Cl)cc2)nc2ccccc21	46	x
COc1ccc(N=c2scc(C)n2C(=O)c2ccccc2Cl)cc1	x	0.2
CCN1CCC(=NNc2ccc(Cl)c(C(=O)O)c2)CC1	-1	x
S=C(Nc1ccccc1)Nc1ccc2c(c1)oc1ccccc12	7	1.6
Cc1ccccc1N(C)C(=O)c1cn(C)c(=O)c2ccccc12	-3	x

An excerpt from above in order of number of heavy atoms, highest first:
SMILES	S aureus helic	MgrA-DNA mod
Cc1ccc(Nc2ncc(C(=O)N3CCCCCC3)c3ccccc23)cc1Cl	9	1.8
S=C(Nc1ccccc1)Nc1ccc2c(c1)oc1ccccc12	7	1.6
C=CCn1c(NCc2ccc(Cl)cc2)nc2ccccc21	46	x
CC(C)CNC(=O)C1(c2cccs2)CCOCC1	19	x

Next entries:
SMILES	S aureus helic	MgrA-DNA mod
O=C(CC(C(=O)O)C1CCCO1)NCc1ccccc1 (configuration not stated)	-4	x
O=C1C(c2cc(Cl)cc(Cl)c2)=C(O)c2ccccc21	x	3.5
CC1(C)CC(=O)C(C=NCc2ccco2)=C(O)C1	-1	0.4
Cc1ccccc1CN(C)C(=O)C1CC(=O)N(Cc2ccccc2)C1 (configuration not stated)	7	x
COCC(C)NS(=O)(=O)c1ccc(F)cc1 (configuration not stated)	6	-3.1
CC(=Nc1cccc2ccccc12)c1sc2ccccc2c1O	x	1.7
O=C(NCC1CCCO1)c1cc2ccccc2oc1=O (configuration not stated)	8	-0.2
CN(C)c1ccc2nc3c(=O)n(CCc4ccccc4)c(=O)[nH]c3nc2c1	-92	x
CCOc1ccc2nc3sc(C(=O)Nc4nonc4C)c(N)c3cc2c1	-13	10
Cc1nn(-c2ccccc2)c2c1N(CC(=O)N1CCCCC1)C(=O)CS2	-1	x
CCNc1cc(N)[n+](CC)c2n[nH]c(N)c12	x	0.3
O=C(CN1C(=O)C2C3C=CC(C3)C2C1=O)NCCc1ccccc1Cl (configuration not stated)	18	x
Oc1oc(-c2ccc(Br)cc2)nc1/C=N/c1nc2ccccc2s1	x	-0.3
Cc1cccc(NCN2C(=O)CSC2=O)c1C	16	-2.6
COc1ccc(S(=O)(=O)N2Cc3ccccc3CC2C(N)=O)cc1OC (configuration not stated)	5	0.8
CCOC(=O)c1cnc(SCc2ccccc2)nc1N	-20	x
COc1ccc2cc(CCNC(C)=O)c(=O)[nH]c2c1	-20	x
Cc1cc(C)c2c(n1)sc1c(N3CCCCC3)ncnc12	x	-1.6
O=C1CC(C(=O)c2ccccc2)N=C(Nc2ccc(Cl)cc2Cl)N1 (configuration not stated)	12	-2.0
Cc1nc2ccccc2nc1OCC(=O)N(C1CCCCC1)C1CCCCC1	13	x
CCn1c2ccc(OC)cc2c2nc3ccccc3nc21	-60	x
Cc1cccc(N=C2SCC(=O)N2c2cccc(C)c2)c1	8	1.6
CCOc1ccc(/C=N/n2cnc3ccccc3c2=O)cc1CN1CC2CC(C1)c1cccc(=O)n1C2 (configuration not stated)	5	x
O=c1c2sc3ccccc3c2n(Cc2ccccc2F)c(=O)n1Cc1ccco1	27	x
C=C(Br)Cn1c(CC(C)C)nc2ccccc21	3	x
O=C(CN1C(=O)c2cccc3cccc1c23)NC1CCCCCC1	1	x
NC1=NC(=Nc2ccc(Cl)cc2)c2ccccc21	3&-12	-0.8
Cc1cc(C)c2c(N)c(-c3nc4ccccc4[nH]3)sc2n1	-10	x
Cc1ccc(N2C(=O)N(CCN3C(=O)c4ccccc4C3=O)C(=O)C2C)cc1 (configuration not stated)	4	x
O=S(=O)(c1ccc(-c2nc3ccccc3s2)cc1)N1CCCC1	-38	x
COc1ccccc1-c1noc(-c2ccccc2C(=O)NCc2ccco2)n1	17	7.0
CCOC(=O)Nc1cc(C(C)(C)C)on1	10	0.4
CCOc1ccc(N(CC)C(=O)CN2C(=O)C3C4C=CC(C4)C3C2=O)cc1 (configuration not stated)	16	x
O=C(Nc1ccc(Cl)cc1)C1CCCC1	13	x
CCC(NC(=O)Cc1ccccc1)C(=O)O (configuration not stated)	2	-2.0
COc1cccc(C(C(=O)NC2CCCCC2)N(C(=O)c2ccccn2)c2cccnc2)c1 (configuration not stated)	7	1.2
COc1ccc(OC)c(Sc2ccc3nnc(-c4ccccc4)n3n2)c1	x	-1.4
COc1ccc(OC)c(NC(=S)NCc2ccc3[nH]c(C)cc3c2)c1	8	-1.1
Cc1cc(Oc2ccc([N+](=O)[O-])cc2)c(Cl)c(C)c1Cl	x	1.9
NNC(=O)c1ccc2c(c1)OCCO2	x	-1.2
O=c1cnn(-c2ccccc2)c(-c2ccccc2)c1	9	x
Cc1ccc(C(=O)OCC(=O)N2c3ccccc3CC2C)cc1 (configuration not stated)	5	x
O=C1CC(NCCc2ccccc2)C(=O)N1c1ccccc1 (configuration not stated)	3	x
Cn1c(C(=O)O)c(CC(=O)NCc2cccnc2)c2ccccc21	9	-2.1
Cc1c(C(=O)N2CCOCC2)oc2ccc3c(c12)C(=O)CC(C)(c1ccc(Cl)cc1)O3 (configuration not stated)	-17	x
O=C(Cc1ccccc1)Nc1c[nH]c(=O)[nH]c1=O	10	x
COC(=O)c1cccc(Oc2nc(Nc3ccccc3F)nc(N3CCC4C=CC=CC4C3)n2)c1 (configuration not stated)	6	0.5

A portion of the library (hit frequency here may not be typical).
